# Sa growth 42C: S. aureus growth inhibition at 42 and 30 °C, primary screen, LtaS inhibitor project, RN4220, two temperatures. OD600, 20 h, 42 °C; stronger effect = lower value. relative growth, % (no concentration beside the values). 170,000 tested, 0.53% active. AID 720641, 2013;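 active = growth at 42 °C up to 50% and 20 or more points under that at 30 °C, or under 10% at both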;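 note: 300 nL library stock went into each well; scaled to the means of positive and negative controls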
# GIV Gai3 FP: inhibitors of GIV peptide binding to Galpha-i3, primary screen, biochemical, fluorescence polarization, FITC-GIV GBA peptide, rat Galphai3. 210,000 tested, 0.42% active. Guanine nucleotide-binding protein G(i) subunit alpha-3 (Rattus norvegicus), P08753. 90 min; stronger effect = lower value; scaled: aluminum fluoride 0%, vehicle 100%. percent of control (FP), % (concentration not given with the values). AID 1224905, 2016;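 active = replicate mean at 85% of control or lower, very high polarization wells dropped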;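 note: wells of about 15 µL received 100 nL stock; the first replicate is given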
# Target sequence (P08753 whole entry, looked up): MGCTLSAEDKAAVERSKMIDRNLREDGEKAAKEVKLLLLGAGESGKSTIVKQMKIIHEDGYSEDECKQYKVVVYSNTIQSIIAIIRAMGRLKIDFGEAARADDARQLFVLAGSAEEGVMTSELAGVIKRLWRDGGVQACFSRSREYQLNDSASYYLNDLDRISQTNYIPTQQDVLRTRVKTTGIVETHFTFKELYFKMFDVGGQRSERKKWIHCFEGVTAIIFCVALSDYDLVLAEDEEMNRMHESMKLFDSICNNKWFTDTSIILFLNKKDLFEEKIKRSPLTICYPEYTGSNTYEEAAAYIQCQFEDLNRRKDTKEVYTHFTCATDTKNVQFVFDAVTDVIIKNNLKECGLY
# HCMV UL50-53 inh: inhibitors of HCMV UL50-UL53 interaction, biochemical, HTRF; normalized percent inhibition; inhibition, % (no concentration beside the values); 190,000 tested, 0.15% active; AID 1918969, 2023;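 active = both replicates at 50% or more, plus weaker picks with an unusually low signal ratio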;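 note: stock transfer was 100 nL into about 20 µL; 0% = negative control wells and 100% = wells with untagged competitor protein; inactives centre near -12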
# Sa growth 42C second temp: recorded beside Sa growth 42C, whose call it bears; relative growth, %; measured here: growth at 30 °C;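 optical density after 20 h as mean of two plates; 100% = untreated growth and lower means inhibition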
# Active calls of the source: *; · = not tested or not shown; & = joins results of further samples.
SMILES,Sa growth 42C,Sa growth 42C second temp,GIV Gai3 FP,HCMV UL50-53 inh
CC(C)CN(C(=O)c1ccc(Cl)cc1)c1c(N)n(CC(C)C)c(=O)[nH]c1=O,95.0,100.9,·,-22.0
Cc1ccc(CNC(=O)c2ccc3c(c2)N(Cc2ccccc2F)C(=O)c2ccccc2S3(=O)=O)cc1,114.0,107.6,103.8,-25.0
CC(=O)NC1CCN(C(=O)Nc2ccccc2)CC1,112.8,90.4,110.9,5.9
CCCN(CCC)C(=O)c1ccc2c(Cl)c3c(nc2c1)CCCC3,107.2,83.3,97.2,·
CS(=O)(=O)N1CCN(C(=O)CSc2ccccc2)CC1,102.6,110.6,105.7,8.9
Cc1cc(NC(=O)c2cc(-c3ccc(Cl)c(Cl)c3)on2)n(-c2ccccc2)n1,90.0,86.0,100.2,-98.1
COc1ccc(OC)c(CCNC(=O)CN2C(=O)COc3ccc(S(=O)(=O)N4CCC(C)CC4)cc32)c1,93.8,77.3,103.2,-25.4
COC(=O)Cn1cccc1C(=O)c1ccccc1,82.4,86.3,100.0,-26.6
COc1ccc2[nH]cc(C(=O)CN3CCN(C(=O)Nc4cc(C)ccc4OC)CC3)c2c1,·,·,104.6,0.5
C=C(C)CSc1nc2c(c(=O)n1-c1ccccc1)CC1=C(CC(C)(CC)OC1)N2 (configuration not stated),116.6,96.4,100.0,·
Cc1ccsc1CN(C(=O)c1oc2ccc(F)cc2c1C)C1CCS(=O)(=O)C1 (configuration not stated),114.3,82.3,102.0,-5.7
CCOCCn1ccc2c(OCC(=O)Nc3cccc(F)c3)cccc2c1=O,118.0,86.0,96.0,·
CC1CCN(C(=O)CSc2c(C(C)C)cnc3c2c(=O)n(C)c(=O)n3C)CC1,95.3,98.5,106.3&106.6,·
CN(C)c1cccc(C(=O)OCC(=O)c2ccc(OC(F)F)cc2)c1,72.8,90.4,·,-8.1
COc1ccccc1OCC(=O)N1CCC(c2nc3ccccc3s2)CC1,·,·,102.5,-14.8
Cc1ccc(N2C(=O)SC(N(CC(=O)O)c3ccccc3)C2=O)cc1 (configuration not stated),89.1,87.8,101.7,11.6
CCCCS(=N)(=O)CCC(N)C(=O)O (configuration not stated),·,·,102.0,1.4
O=C(Oc1ccc2c(=O)c(Oc3ccccc3Cl)coc2c1)c1ccco1,85.1,77.0,100.3,-31.0
CS(=O)(=O)c1ncc(Cl)c(C(=O)N(Cc2ccc(Cl)cc2)Cc2ccco2)n1,18.6,-1.1,103.6,-19.1
CC(=O)N(c1nccs1)C1CCCCC1,93.3,92.9,·,-16.1
CCOC(=O)c1cnc2c(C)c(Cl)ccc2c1Nc1ccc(C)cc1C,99.3,98.0,102.3,34.0
COC(=O)C1=C(C)N(Cc2ccc(C)cc2)C(=O)/C1=C\c1ccc(N(C)C)cc1,98.7,91.1,95.4,-21.5
CCN(CC)c1ccc(Nc2cc(C)nc3ncnn23)c(C)c1,·,·,101.8,-25.8
COc1ccc2c(CC(=O)Nc3ccccc3)coc2c1,91.3,84.8,·,-30.7
CCOc1ccccc1NC(=O)c1c(NC(=O)c2cccc(C)c2)sc2c1CCCC2,77.6,84.9,105.4,-54.9

# Next section.
SMILES,Sa growth 42C,Sa growth 42C second temp,GIV Gai3 FP,HCMV UL50-53 inh
C=CCn1c(CCNC(=O)c2cccs2)nnc1SCC(=O)c1ccc(Br)cc1,96.9,80.3,102.5,3.1
Cc1cccc(N=C(N)NC(N)=O)c1,94.8,104.6,97.6,8.3
CCN(CC)c1ccc(N=C2C(=C(C#N)C#N)c3ccccc3C2=C(C#N)C#N)cc1,109.1,81.3,·,-39.8
COc1ccccc1OCCC(=O)NC1CCCCC1C (configuration not stated),131.5,99.9,·,11.8
CC(C)(C)c1ccc(Cn2c(N)nc3ccccc32)cc1,6.3*,3.9*,98.0,-25.7
CCc1nc2ccccc2c(=O)n1Cc1noc(CN2C(=O)COc3ccc(Cl)cc32)n1,·,·,114.9,-28.5
CCc1ccc(N2C(=O)N(C)c3ccccc3S2(=O)=O)cc1,100.1,90.1,106.0,-20.7
O[C@H]1CCCC2CCCCC21 (some centres not stated),99.0,90.4,111.3,-10.0
C=CCn1c(=O)sc2cc(NC(=O)c3sccc3C)ccc21,·,·,100.1,5.3
CCNC(=O)CSc1ccc(Cl)cc1,109.3,100.6,100.6,-11.3
Cc1ccc(C(=O)OC2CCCN(C)C2)s1 (configuration not stated),103.3,103.1,·,31.8
CCOc1ccc(NC(=O)c2oc3ccc(F)cc3c2C)c2cccnc12,·,·,99.3,-34.5
CC1(C)CC2CC(C)(CN2C(=O)COC(=O)c2cccs2)C1 (configuration not stated),103.1,85.4,·,-34.1
CC(C)=CCSc1nc2sc3c(c2c(=O)[nH]1)CCCC3,106.0,91.8,103.8,1.5
CC(=O)Oc1ccc(/C=C2/C(=N)N3C(=NC2=O)SN=C3SC(C)C)cc1,101.8,83.9,105.2,·
CN(C)S(=O)(=O)c1cccc(C(=O)OCc2cc(=O)n3ccsc3n2)c1,93.2,83.5,·,-17.7
O=C(O)C1CSC(C2CC=CCC2)N1 (configuration not stated),91.5,82.8,·,-14.4
C/C(=N\N)c1c(-c2ccccc2)c2cc(Br)ccc2[nH]c1=O,119.2,79.6,105.0,·
CC1=C(C#N)C(=O)N(CC(C)O)C(=O)/C1=C/c1ccc(-c2ccc(Br)cc2)o1 (configuration not stated),71.9,69.9,123.6,·
CCOC(=O)CSc1nnc2c3ccccc3n(C)c2n1,94.7,92.3,107.9,-29.4
Cn1nc(-c2cc(C(F)(F)F)cc(C(F)(F)F)c2)c2ccccc2c1=O,94.9,85.1,95.8,-39.8
OCC1CCCN(Cc2ccc(Br)o2)C1 (configuration not stated),97.0,107.0,106.8,-7.9
COc1ccccc1OCc1nc(-c2cccc(C)c2)no1,90.7,86.2,106.8,-26.6
COc1cccc(NC(=O)CSc2nc(-c3ccccc3)nc3cc(=O)[nH]n23)c1,·,·,97.1,-22.6
COCCNS(=O)(=O)c1ccc(C(=O)OC)n1C,92.3,89.0,106.4,-31.5

# Continued.
SMILES,Sa growth 42C,Sa growth 42C second temp,GIV Gai3 FP,HCMV UL50-53 inh
Cc1nn(Cc2ccccc2)c(C)c1C(=O)OCC(=O)c1cc(C)n(C2CC2)c1C,136.6,95.5,·,-3.6
COc1ccc(CCNC(=O)c2c(C)oc3ncn(CC(C)C)c(=O)c23)c(OC)c1,96.2,87.8,105.5,·
O=C(CCSCc1ccccc1Cl)N1CCN(c2cccc(Cl)c2)CC1,98.0,63.1,98.6,·
CC1CCN(C(=O)CCc2nc(-c3ccc(Cl)cc3)no2)CC1,·,·,105.7,-17.4
O=c1[nH]c(NCCO)nc2ccccc12,82.1,72.3,102.4,-18.2
Cn1c(SCC(=O)Nc2nc3ccccc3s2)ncc(C(=O)Nc2ccc(Cl)cc2)c1=O,99.4,87.0,97.3,·
CC(O)CN(Cc1ccc(Cl)c(Cl)c1)CC(C)O (configuration not stated),108.8,92.7,106.5,-10.5
COc1ccc(CN(Cc2cccn2C)C(=O)c2cc3cc(OC)ccc3[nH]2)cc1,103.2,89.2,102.0,-23.3
CC1=C(c2ccccc2)S(=O)(=O)N(CC(=O)N2CCc3ccccc32)C1=O,·,·,104.3,-5.0
O=C(Nc1ccc2[nH]ncc2c1)/C(=C/c1ccco1)NC(=O)c1ccccc1,113.1,82.8,103.3,-53.9
CCSc1nc2sc3c(c2c(=O)n1-c1ccc(C)cc1)CC(C)(C)OC3,·,·,94.2,1.7
COc1ccc(N2C(=O)CC2(C#N)c2ccc(OCc3ccccc3)cc2)cc1 (configuration not stated),99.4,96.5,99.9,-21.9
O=C1c2ccccc2C(=O)N1CCSc1ncccn1,102.3,78.8,·,-27.9
COc1cccc(NC(=O)NCc2ccccc2)c1,99.9,94.5,102.1,-13.6
Cc1ccc(-n2nc(C(=O)N3CCN(c4ccccn4)CC3)c(=O)n(C)c2=O)cc1,·,·,102.8,-14.0
Cn1c(CC(=O)Nc2ccccc2)n[nH]c1=S,104.7,65.9,106.4,-11.2
Cc1cc2n(n1)CCC(=O)N2C(C)C(=O)N(C)Cc1ccccc1 (configuration not stated),·,·,106.6,7.2
Cc1cc(-n2c(C)cc(C(=O)Cn3cc(C(F)(F)F)cc(Cl)c3=O)c2C)no1,99.0,100.6,·,-9.3
CCOC(=O)c1c(-c2ccccc2)csc1NC(=O)c1snnc1C,·,·,100.7,-20.0
COc1ccccc1OCC(=O)N1C(C)CCCC1C (configuration not stated),103.6,91.8,103.0,-27.6
CCn1c(=O)c2c(C(=O)Nc3cccc(Cl)c3)cc(=O)n(CC)c2n(C)c1=O,·,·,105.9,-0.1
CN(C)c1ccc(C2CC(c3ccccc3)=NN2C(=O)CCCC(=O)O)cc1 (configuration not stated),·,·,104.6,-26.3
CC1(C)CC(=O)C=C(NCC2CCNCC2)C1,115.2,113.1,107.0,3.8
O=C(O)CC1(Cc2nc(-c3ccc(Cl)cc3)no2)CCCC1,154.6,71.9,99.8,·
C=CCNC(=O)C1C(=O)Nc2nc3ccccc3nc21 (configuration not stated),94.3,96.4,·,2.6

# Continuation.
SMILES,Sa growth 42C,Sa growth 42C second temp,GIV Gai3 FP,HCMV UL50-53 inh
Cc1oc(-c2cccc(Br)c2)nc1CN1CCC(C(=O)NC2CCCCC2)CC1,102.0,91.6,99.6,-1.8
Cc1ccccc1-n1c(C)cc(/C=C2\NC(=O)NC2=O)c1C,66.0,82.6,112.0,·
Cc1cc(O)cc(O)c1C(=O)Cc1cnn(-c2ccccc2)c1,93.6,74.7,·,-10.1
COc1ccc(S(=O)(=O)Nc2ccc3c(c2)sc(=O)n3C)cc1Cl,110.7,93.1,109.8,·
CCOC(=O)c1c(NC(C)=O)c2c3c(sc2n1Cc1ccccc1C)CCCC3,·,·,99.1,-4.4
Cc1nnc2c(Nc3ccccc3I)nc3nonc3n12,97.8,71.0,106.4,-25.8
S=c1cc(-c2ccccc2)ss1,78.4,87.0,106.3,-55.2
Cc1ccc(NC(=O)C2C3C=CC4(O3)C2C(=O)N(c2ccccc2F)C4C(=O)NC2CCCC2)cc1 (configuration not stated),109.0,41.6,106.8,-0.4
c1ccc(-c2nc3ccccc3o2)cc1,88.6,75.5,·,-10.3
COc1ccc(NC(=O)c2ccccc2Nc2ccccc2)cc1,80.7,99.6,·,-16.3
O=C(Nc1cccc2nonc12)C(F)(F)C(F)(F)C(F)(F)F,117.5,47.5,104.8,-13.3
CCN(CC)CCOc1ccc2nc(N(C)C)sc2c1,86.5,95.7,102.4,·
CC(=O)Oc1ccccc1OCc1nn(C)c2ccccc12,101.8,83.8,·,-3.7
Cc1cccc(Cn2nc(Cc3cccnc3)c3ccccc3c2=O)c1,100.2,51.4,105.2,·
Cc1cc(C)c2oc(-c3ccc(NC(=O)c4cc(Br)ccc4Cl)cc3)nc2c1,91.1,98.8,99.9,-3.8
CC1=C(C(N)=O)C(/C=C/c2ccccc2)n2ncnc2N1 (configuration not stated),84.5,88.6,102.1,-12.9
O=C1CN(C(=O)Cn2nnc3ccccc3c2=O)c2ccccc2N1,67.9,89.0,·,-36.6
CC(CNC(=O)CN1C(=O)COc2ccc(S(=O)(=O)N3CCCCC3)cc21)c1ccccc1 (configuration not stated),111.7,90.3,109.0,·
CCCC1=C(C(=O)OCC)C(c2cccnc2)C(C#N)=C(N)O1 (configuration not stated),·,·,103.5,-20.9
O=C(Nc1ccccc1)C1CCN(c2cnccn2)CC1,81.9,83.0,99.5,-22.3

# A different layout for some results above.
# Each structure is followed by: Sa growth 42C	Sa growth 42C second temp	GIV Gai3 FP	HCMV UL50-53 inh
Cc1ccc(NC(=O)C2C3C=CC4(O3)C2C(=O)N(c2ccccc2F)C4C(=O)NC2CCCC2)cc1 (configuration not stated)
  109.0	41.6	106.8	-0.4
c1ccc(-c2nc3ccccc3o2)cc1
  88.6	75.5	·	-10.3
COc1ccc(NC(=O)c2ccccc2Nc2ccccc2)cc1
  80.7	99.6	·	-16.3
O=C(Nc1cccc2nonc12)C(F)(F)C(F)(F)C(F)(F)F
  117.5	47.5	104.8	-13.3
CCN(CC)CCOc1ccc2nc(N(C)C)sc2c1
  86.5	95.7	102.4	·
CC(=O)Oc1ccccc1OCc1nn(C)c2ccccc12
  101.8	83.8	·	-3.7
Cc1cccc(Cn2nc(Cc3cccnc3)c3ccccc3c2=O)c1
  100.2	51.4	105.2	·
Cc1cc(C)c2oc(-c3ccc(NC(=O)c4cc(Br)ccc4Cl)cc3)nc2c1
  91.1	98.8	99.9	-3.8
CC1=C(C(N)=O)C(/C=C/c2ccccc2)n2ncnc2N1 (configuration not stated)
  84.5	88.6	102.1	-12.9
O=C1CN(C(=O)Cn2nnc3ccccc3c2=O)c2ccccc2N1
  67.9	89.0	·	-36.6
CC(CNC(=O)CN1C(=O)COc2ccc(S(=O)(=O)N3CCCCC3)cc21)c1ccccc1 (configuration not stated)
  111.7	90.3	109.0	·
CCCC1=C(C(=O)OCC)C(c2cccnc2)C(C#N)=C(N)O1 (configuration not stated)
  ·	·	103.5	-20.9
O=C(Nc1ccccc1)C1CCN(c2cnccn2)CC1
  81.9	83.0	99.5	-22.3

# High-throughput results (PubChem)
